# GLA inh pH 4.5: inhibitors of human alpha-galactosidase A at pH 4.5. P06280. purified enzyme, 4-MU-alpha-Gal fluorescence, pH 4.5. activity change, negative = inhibition, % at 105 µM. 230,000 tested, under 10 active. AID 1467; inconclusive = small, poorly fitted or top-dose-only inhibition, or a rising curve; inactive = flat fitted curve, though single readings scatter; no compound was filed as active;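 note: 0% = full activity with enzyme and -100% = basal without enzyme; dose as in the result columns while the protocol names 77 µM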
# Rango release inh: prevents RanGTP from dissociating the Rango-importin beta complex; Biochemical FRET Rango-importin beta, RanGTP-induced dissociation; O95149+P62826; Potency, µM (highest dose often 46.1 µM), for inactives: top-dose activity change, negative = inhibition; 0.071% of 340,000 active; active means falling FRET ratio curve, often poorly fitted, with flat reads before Ran was added; inconclusive means other falling curves, or compound fluorescence or quenching; inactive means flat or rising ratio curve;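 note: potency is the fitted concentration of half-maximal effect; % of control where 0% means no effect; nearly all actives have a fitted effect of over 45% in size; -100% = wells without RanGTP and RCC1; the record marks most hits as doubtful in a second field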
#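 Two FRET readings bracket the reaction: one 5 min after compound meets Rango–importin beta, another 45 min after RanGTP-RCC1 (0.6 uM Ran, 0.2 uM RCC1, 2 mM GTP) is added. Only the second defines inhibition.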
# Rango complex inh: inhibitors of Rango-importin beta complex formation; Q14974; Rango CFP/YFP FRET sensor + importin beta, 45 min; Potency, µM (titrated, usually from 92.2 µM), inactives show at the highest dose inhibition of complex formation; 0.031% of 340,000 active; active = rising FRET ratio curve, often small or poorly fitted; inconclusive = mostly compound fluorescence or quenching in the first reads; inactive = flat curves in all reads;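 note: potency is the fitted concentration of half-maximal effect; 0% = DMSO wells and 100% = buffer wells lacking importin beta; nearly all actives have a fitted effect of over 15% in size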
# Target sequence (Q14974 whole entry, looked up): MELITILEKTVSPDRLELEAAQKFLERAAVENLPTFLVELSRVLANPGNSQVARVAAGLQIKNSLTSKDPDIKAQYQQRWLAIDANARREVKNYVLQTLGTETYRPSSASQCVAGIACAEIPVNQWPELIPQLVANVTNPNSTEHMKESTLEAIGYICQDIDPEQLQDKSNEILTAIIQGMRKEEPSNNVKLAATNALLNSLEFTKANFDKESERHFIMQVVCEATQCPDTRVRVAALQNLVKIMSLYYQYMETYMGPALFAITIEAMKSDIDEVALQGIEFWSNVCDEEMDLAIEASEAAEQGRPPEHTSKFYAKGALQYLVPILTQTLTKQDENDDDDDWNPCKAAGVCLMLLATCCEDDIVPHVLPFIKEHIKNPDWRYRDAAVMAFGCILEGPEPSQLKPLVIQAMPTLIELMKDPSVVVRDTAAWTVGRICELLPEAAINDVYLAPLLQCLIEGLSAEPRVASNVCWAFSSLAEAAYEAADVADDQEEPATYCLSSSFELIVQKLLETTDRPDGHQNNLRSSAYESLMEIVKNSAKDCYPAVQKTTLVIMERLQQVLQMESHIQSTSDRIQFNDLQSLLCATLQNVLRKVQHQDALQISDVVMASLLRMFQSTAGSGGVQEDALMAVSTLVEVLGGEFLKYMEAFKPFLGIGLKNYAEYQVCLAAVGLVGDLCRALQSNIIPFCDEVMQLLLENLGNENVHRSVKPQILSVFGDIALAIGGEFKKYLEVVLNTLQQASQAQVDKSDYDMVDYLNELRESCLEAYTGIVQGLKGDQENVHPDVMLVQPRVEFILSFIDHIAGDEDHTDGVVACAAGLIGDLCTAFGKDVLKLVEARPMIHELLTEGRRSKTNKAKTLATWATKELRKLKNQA
#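 Inhibition scored from the CFP 486 nm/YFP 530 nm FRET ratio 45 min after adding 0.125 microM importin beta to 50 nM Rango biosensor preincubated 5 min with compound (room temperature, PBS with DTT, Tween-20, BSA). No-importin wells as positive control.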
# miR-21 reporter: raises the signal of a miR-21 reporter. Potency, µM (highest dose often 38.3 µM), for the others: top-dose reporter change, positive = more light. 340,000 tested, under 10 active. HeLa miR-21 FLuc reporter, luciferase, 48 h. AID 2288; active = well fitted rising curve with a large enough effect; inconclusive = small, poorly fitted or top-dose-only effect; inactive = no such curve, though single readings can be large or run the other way;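 note: % of control where 0% means no effect; miR-21 action dims this reporter so a rising signal means less miR-21 action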
#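 HeLa cells endogenously expressing miR-21, stably carrying CMV-driven firefly luciferase with a downstream miR-21 binding site, 2000 cells/well. Titrations up to approximately 40 uM, 48 hours; luciferase luminescence read.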
# * = called active by the depositor; ? = inconclusive; nt = not tested or not shown.
# Each structure is followed by: miR-21 reporter, Rango complex inh, GLA inh pH 4.5, Rango release inh
CC(C)NC(=S)N(C)C1(c2ccccc2Cl)CCCCC1=O (configuration not stated)
    -9%, 6.4%, -5, ?
COc1ccccc1OCC(=O)Nc1ccc(O)cc1C(=O)O
    1%, ?, 3, -3%
COc1ccc(CC(=O)Nc2ccccc2-c2ccccc2)cc1OC
    15%, -0.6%, nt, -16%
O=C(NCC(c1ccco1)N1CCN(c2ccc(F)cc2)CC1)c1ccco1 (configuration not stated)
    nt, 0.8%, nt, 6%
CC(=NCCCn1ccnc1)c1c(C)[nH]n(-c2ccc([N+](=O)[O-])cc2)c1=O
    -4%, 4.5%, -8, 0%
O=C1NC(c2cccc3ccccc23)Nc2ccccc21 (configuration not stated)
    nt, 1.2%, nt, 3%
CC1(C)CC(=O)C(C=NCCN2CCN(C(=S)Nc3cccc(Cl)c3)CC2)=C(O)C1
    1%, -0.9%, 15, -1%
CCCC(=O)NC(=S)c1c(C)n(C)n(-c2ccccc2)c1=O
    -2%, 0.3%, 8, 1%
O=C(CNc1ccc2ccccc2c1)N/N=C/c1ccncc1
    -7%, 0.2%, nt, 7%
CCOCC(=O)Nc1nc2c(s1)C(=O)CC(C)(C)C2
    -4%, ?, 8, -16%
COC(=O)c1cc(OC)c(OC)cc1NC(=O)Nc1ccccc1F
    -10%, -2.0%, 8, -1%
CCOP(=O)(OCC)C(NCc1ccccc1)c1ccc(Br)cc1 (configuration not stated)
    -2%, 6.3%, 3, 9%
CCOC(=O)CNC(=O)C1(NC(=O)CNC(=O)OCc2ccccc2)CCCC1
    nt, -7.1%, nt, 19%
Cc1nnc(NC(=O)C23CC4CC(CC(C4)C2)C3)s1
    -1%, 0.0%, nt, 5%
O=C(CN1C(=O)NC2(CCCC2)C1=O)N1CCc2ccccc2C1
    -17%, -2.9%, -2, -21%
CCCc1nnc(NS(=O)(=O)c2ccc(OC)cc2)s1
    -4%, 1.4%, 1, -8%
CCOc1ccc2noc3c2c1C(=O)c1ccccc1-3
    -2%, 4.1%, -5, 24%
O=C(CSCc1ccccc1)N/N=C/c1ccc(OCC(=O)N2CCCCC2)cc1
    -3%, -4.0%, 1, -11%
CCC(=O)c1ccc(OC(=O)/C=C/c2cc(OC)c(OC)c(OC)c2)cc1
    8%, -2.4%, nt, -9%
CCCCCOC(=O)C(C)c1c(C)[nH]c(=S)[nH]c1=O (configuration not stated)
    3%, 0.6%, 0, 2%
O=C(NC1CCCC1)C1=COCCO1
    4%, 2.4%, 4, 11%
COC(=O)C1=C(C)NC2=C(C(=O)CC(C)(C)C2)C1c1ccsc1 (configuration not stated)
    -1%, ?, -5, -23%
COc1ccc(C)cc1NC(=O)C(C)N1CCOCC1 (configuration not stated)
    -1%, -0.9%, nt, ?
Cc1ncc([N+](=O)[O-])n1S(=O)(=O)c1cc(Br)ccc1Br
    -2%, 5.0%, nt, 14%
Cc1ccc(S(=O)(=O)n2nc(C)cc2N)cc1
    -3%, -0.2%, -1, 13%
O=C(Cc1cccs1)N(Cc1ccco1)C1(C(=O)NC2CCCCC2)CCCCC1
    6%, 3.1%, 0, -9%
O=C(O)COc1ccccc1/C=N/NC(=O)c1cccc(S(=O)(=O)N2CCOCC2)c1
    0%, -3.4%, 1, -1%
Cc1cc([N+](=O)[O-])nn1CCCC(=O)Nc1cccc(Cl)c1Cl
    -6%, 4.4%, 2, -6%
O=S(=O)(Cc1ccccc1)Nc1ccccc1
    2%, 1.3%, nt, 22%
Cc1ccc(C(=O)N/C(=C\c2cccc([N+](=O)[O-])c2)C(=O)NCc2ccncc2)cc1
    0%, 4.0%, -10, 15%

# Shown with values ahead of the structure: 6 of the compounds above
miR-21 reporter | Rango complex inh | GLA inh pH 4.5 | Rango release inh | structure
-3% | -0.2% | -1 | 13% | Cc1ccc(S(=O)(=O)n2nc(C)cc2N)cc1
-1% | ? | -5 | -23% | COC(=O)C1=C(C)NC2=C(C(=O)CC(C)(C)C2)C1c1ccsc1 (configuration not stated)
-2% | 5.0% | nt | 14% | Cc1ncc([N+](=O)[O-])n1S(=O)(=O)c1cc(Br)ccc1Br
-1% | -0.9% | nt | ? | COc1ccc(C)cc1NC(=O)C(C)N1CCOCC1 (configuration not stated)
6% | 3.1% | 0 | -9% | O=C(Cc1cccs1)N(Cc1ccco1)C1(C(=O)NC2CCCCC2)CCCCC1
2% | 1.3% | nt | 22% | O=S(=O)(Cc1ccccc1)Nc1ccccc1

# Next entries follow.
# Each structure is followed by: miR-21 reporter, Rango complex inh, GLA inh pH 4.5, Rango release inh
COc1cccc(/C=C(\C#N)c2nc3ccccc3[nH]2)c1OCC(=O)O
    -25%, ?, nt, ?
CC(=O)Nc1ccc(C(=O)NNC(=O)Cc2ccccc2)cc1
    1%, -2.3%, 4, 0%
COc1ccc(OCCC(=O)Nc2ccc(S(N)(=O)=O)cc2)cc1
    7%, -1.9%, nt, -1%
CN=C1S/C(=C\c2ccc(O)c(Br)c2)C(=O)N1C
    -6%, ?, nt, ?
CN(C(=O)COC(=O)C1CCN(S(=O)(=O)c2ccc3c(c2)OCCO3)CC1)C1CCS(=O)(=O)C1 (configuration not stated)
    nt, -1.4%, nt, 8%
Cc1ccc(NC(=O)c2cc(=O)[nH]c3ccc(S(=O)(=O)N4CCOCC4)cc23)nc1
    nt, -0.9%, nt, 25%
O=C(CCC1CCCCC1)NCCS(=O)(=O)N1CCN(c2ccccc2)CC1
    nt, -1.0%, nt, -7%
CCc1cc2c3c(c1)C1(C(=O)N3C(C)(C)C=C2C)C(C#N)=C(N)Oc2[nH]c(=O)[nH]c(=O)c21 (configuration not stated)
    10%, 9.9%, 7, 7%
O=C(/C=C/c1ccc(Cl)cc1Cl)c1cccnc1
    -1%, 3.9%, -2, -6%
Cc1cnc(NC(=O)c2ccccn2)s1
    20%, 2.5%, 0, 0%

# Three entries out of the list above, sorted by the value under Rango complex inh, lowest first:
# Each structure is followed by: miR-21 reporter, Rango complex inh, GLA inh pH 4.5, Rango release inh
Cc1ccc(NC(=O)c2cc(=O)[nH]c3ccc(S(=O)(=O)N4CCOCC4)cc23)nc1
    nt, -0.9%, nt, 25%
Cc1cnc(NC(=O)c2ccccn2)s1
    20%, 2.5%, 0, 0%
CCc1cc2c3c(c1)C1(C(=O)N3C(C)(C)C=C2C)C(C#N)=C(N)Oc2[nH]c(=O)[nH]c(=O)c21 (configuration not stated)
    10%, 9.9%, 7, 7%

# The results go on.
# Each structure is followed by: miR-21 reporter, Rango complex inh, GLA inh pH 4.5, Rango release inh
N[C@@H](Cc1ccccc1)c1nnc(SCc2ccccc2Cl)o1
    -19%, 5.8%, -3, 6%
O=C(NNC(=O)c1cccs1)c1ccc(S(=O)(=O)N2CCCCC2)cc1
    -2%, 0.1%, -10, 3%
O=C(OCc1nc2ccccc2c(=O)[nH]1)c1cccs1
    -9%, -2.5%, 6, 7%
Cc1ccc(C)c(N2CCN(C(=O)Cn3c(=O)oc4cc(S(=O)(=O)N5CCCC5)ccc43)CC2)c1
    2%, -5.9%, nt, -5%
CC(=O)N1CCOc2ccc(S(=O)(=O)N(C)c3cccc(C)c3)cc21
    0%, 3.8%, nt, -21%
O=[N+]([O-])c1ccc(N2CCN(c3ccc(F)cc3)CC2)cn1
    -11%, -2.4%, nt, 6%
Cc1nn2c(COc3ccc(NC(=O)c4ccccc4)cc3)nnc2c2ccccc12
    1%, -3.4%, -3, -5%
COc1ccccc1C(CNC(=O)c1ccc(C)c(S(=O)(=O)N2CCCCC2)c1)N(C)C (configuration not stated)
    nt, 0.2%, nt, -26%
Cc1ccc(C(=O)OCC(=O)Nc2ccccc2Cl)c(O)c1
    1%, -1.8%, 1, -4%
CCOc1ccc(/C=N/Nc2cc(N3CCOCC3)nc(C)n2)c(O)c1
    8%, 2.3%, nt, 2%
COc1ccc(Cc2noc(CN3CCCN(Cc4ccc(F)cc4)CC3)n2)cc1OC
    -3%, -0.1%, 5, 9%
COc1cc2cc(CCCOC(=O)c3ccc(C(F)(F)F)cc3)oc(=O)c2cc1OC
    nt, -2.3%, nt, 1%
CCCNC(=O)C/C(C)=N/NC(=O)C(=O)Nc1ccccn1
    -11%, 1.3%, 7, -7%
COc1ccccc1CNC(=O)C(=O)NCC1OCCN1S(=O)(=O)c1ccccc1 (configuration not stated)
    -6%, 4.3%, nt, 11%
COc1ccccc1NC(=O)COC(=O)c1ccc([N+](=O)[O-])s1
    4%, -2.4%, 4, -8%
COc1ccc(C2NC(=O)CCC2[N+](=O)[O-])c(OC)c1 (configuration not stated)
    -1%, -1.6%, nt, 8%
Cc1c(O)c(CN2CCCCC2)cc2c3c(c(=O)oc12)CCC3
    -12%, ?, ?, ?
COc1ccc(NC(=O)c2nc[nH]c2C(=O)N(C)Cc2ccccc2)cc1
    -7%, -3.8%, 6, 8%
COc1cccc(/C=C/C(=O)NNC(=O)c2ccncc2)c1
    nt, 3.6%, nt, 8%
N/C(=N\N=C/c1ccc(F)cc1)N/N=C\c1ccc(F)cc1
    8%, 0.9%, nt, 6%
COc1ccc(C2NC(C(=O)O)Cc3c2[nH]c2ccccc32)cc1CN1CCN(c2ccc(F)cc2)CC1 (configuration not stated)
    5%, ?, 1, ?
CCN(CC(=O)Nc1ccc2c(c1)OCCO2)C(=O)c1ccc(C)c(S(=O)(=O)N2CCOCC2)c1
    nt, 0.0%, nt, 22%
C#CCOc1ccccc1CNc1ccccc1
    -11%, 0.5%, 2, 0%
COCC(C)NC(=O)c1ccc2c(c1)S(=O)(=O)c1ccccc1C2=O (configuration not stated)
    -13%, -2.7%, nt, -13%
CCCCCCc1cc2cc(C(=O)Nc3ccccc3OC)c(=O)oc2cc1O
    -11%, ?, -9, ?
CC1(C)CC(=O)C=C(c2cccc(O)c2)C1
    nt, -0.7%, nt, 25%
COCCNC(=O)C1CC(=O)N(c2ccc(F)c(Cl)c2)C1 (configuration not stated)
    nt, 3.8%, nt, 5%
C/C(=N/NC(=O)c1ccco1)c1ccc(NC(=O)c2ccc(F)cc2)cc1
    -46%, -1.4%, 1, -6%
Cc1c(NS(=O)(=O)c2cc(C(=O)NCCN(C)C)ccc2Cl)c(=O)n(-c2ccccc2)n1C
    -4%, -2.4%, nt, 4%
CC1=NN(C(N)=S)C(=O)C1N=Nc1cccc(Cl)c1C (configuration not stated)
    -18%, -0.6%, nt, ?
Cc1ccc(NC(=O)c2sc(N)nc2-c2ccccc2)cc1C
    2%, -0.2%, -5, -16%
Cc1ccc(Cl)cc1NC(=O)COC(=O)C1CC1
    3%, 0.0%, 5, -6%
COc1ccc(C(=O)Nc2ccccc2C(=O)N2CCN(c3ccccc3)CC2)cc1
    -7%, -0.1%, nt, 7%
CC1=CC(C)(C)n2c(O)c(N=NC(N)=S)c3cccc1c32
    -8%, 1.2%, 1, -12%
COCCNc1oc(Cc2cccc3ccccc23)nc1C#N
    -5%, -4.2%, nt, -7%
O=C(Cn1c(=O)ccn(Cc2ccccc2)c1=O)Nc1cccc(S(=O)(=O)N2CCOCC2)c1
    nt, -3.9%, nt, 16%
CCOC(=O)C1CCN(S(=O)(=O)c2ccc(OCC)cc2)CC1
    -1%, -1.6%, -15, -4%
Cc1ccc(S(=O)(=O)N2CCN(C(=O)CN3C(=O)CNC3=O)CC2)cc1
    nt, -0.4%, nt, -3%
CN(C)Cc1c(C(=O)N/N=C/c2cccc3ccccc23)nnn1-c1nonc1N
    0%, 1.1%, nt, -18%
COc1ccccc1CNC(=O)C(NS(=O)(=O)c1cccc2nsnc12)C(C)C (configuration not stated)
    -2%, 0.7%, -3, 1%
CN(C)/C=C1\Oc2ccc3ccccc3c2C1=O
    -60%, ?, -4, ?
O=C(c1cc(-c2ccccc2)nc2ccccc12)N1N=C(C(F)F)CC1(O)C(F)F (configuration not stated)
    -4%, -5.5%, 7, 22%
CCN(c1ccccc1)S(=O)(=O)c1cc(NC(=O)CSc2n[nH]c(=O)[nH]c2=O)ccc1Cl
    -1%, 0.1%, -3, 13%
Cc1ccc(CN2CCSc3sccc3C2=O)cc1
    -1%, -2.7%, 0, 35%
CCOC(=O)CN1C(=O)N[C@@H](CCc2ccccc2)C(C(C)=O)=C1C
    nt, 1.7%, 1, 6%
Cc1cc(NC(=O)c2ccc(NC(=O)C3CCCO3)cc2)ccc1Br (configuration not stated)
    1%, -6.3%, nt, 13%

# Bioassay records from PubChem BioAssay.

# These rows are one share of the data; the hit share may differ from the screen's.
